H5N1 CPE = antiviral screen in MDCK cells, H5N1 avian flu | cytopathic effect, luminescence, 72 h; hits give high values; no value below 0 was filed and about half of the inactive calls have no number; reference of the scale not given here | inhibition, % at 50 µM | hit rate 0.07% among 96,000 | AID 740; in the data active = inhibition above about 25%
* marks the source's active call; other numbers are inactive results; i = inactive. This is a subset (hit frequency here may not be typical).

The first two records (preview)
item	canonical_smiles	H5N1 CPE
1	CCc1cccc(NC(=O)Cn2cccc2)c1	i
2	O=C(COc1ccccc1)NC(Cc1c[nH]c2ccccc12)C(=O)O (stereo unspecified)	i

The whole of this part, previewed entries included:
item	canonical_smiles	H5N1 CPE
1	CCc1cccc(NC(=O)Cn2cccc2)c1	i
2	O=C(COc1ccccc1)NC(Cc1c[nH]c2ccccc12)C(=O)O (stereo unspecified)	i
3	Cc1[nH]nc2c1C(c1ccccc1F)CC(=O)N2 (stereo unspecified)	i
4	CCn1cc(NC(=O)Nc2ccccc2C(=O)OC)c(C(N)=O)n1	0.5
5	CC(C)(C)C(=O)NC(=S)NCCc1ccccc1	0.9
6	CCOC(=O)C1=C(C)NC(SCC(=O)Nc2cc(C)on2)=C(C#N)C1c1cccs1 (stereo unspecified)	1.9
7	COc1ccc(OC(C)C(=O)NC2CC(C)(C)NC(C)(C)C2)cc1 (stereo unspecified)	0.7
8	COC(=O)c1ccc(-c2ccco2)n1Cc1cc(C)ccc1C	i
9	Cc1cnc(C(=O)Nc2ccc3c(c2)CCC3)cn1	0.3
10	O=C(NCCCN1CCOCC1)c1ccc2c(=O)n(CCc3ccccc3)c(=O)[nH]c2c1	0.3
11	COc1ccc(-n2c(SCC(=O)NCC3CCCO3)nc3n[nH]c(C)c3c2=N)cc1 (stereo unspecified)	3.5
12	Cc1ccc(-c2nnn(CC(=O)NC3CC4CCC3C4)n2)cc1 (stereo unspecified)	i
13	COc1cccc(C(=O)N2CCN=C2SCc2cccnc2)c1OC	1.9
14	Cn1c(Cn2c(=O)sc3ccccc32)nnc1SCC(=O)NCc1ccccc1Cl	i
15	O=C1CCc2cc(S(=O)(=O)N3CCCC3C(=O)NC3CCCCCCC3)ccc2N1 (stereo unspecified)	2.0
16	CCCCn1c(=N)n(CC(O)COc2ccc(C)cc2)c2ccccc21 (stereo unspecified)	i
17	Cc1ccc(SC(C)c2nc(-c3cccnc3)no2)cc1 (stereo unspecified)	0.1
18	CC(C)Cn1cc(C(=O)NCCCN2CCCC2=O)c2c3ccccc3n(C)c2c1=O	i
19	Cn1c(SC2CCCCC2=O)nnc1-c1ccncc1 (stereo unspecified)	1.4
20	Cn1c(=O)c2c(nc(N3CCCCCC3)n2CC(=O)c2ccccc2)n(C)c1=O	0.0
21	O=C(CN(C(=O)Cn1nnc(-c2cccs2)n1)c1ccc2c(c1)OCCO2)NCc1ccccc1	i
22	Cc1nn(-c2nc3ccccc3n2Cc2ccccc2)c2c1C(=O)CC(C)(C)C2	4.6
23	CCOC(=O)c1sc(=N)n(-c2ccc(OC)cc2)c1C	0.4
24	Cc1ccc(N(CC(O)CN(C)C)S(=O)(=O)c2ccccc2)cc1 (stereo unspecified)	0.1
25	CCOC(=O)c1cc(-c2ccco2)nc2c1c(C)nn2-c1ccccc1	i
26	Cc1ccccc1NS(=O)(=O)c1cc(C(N)=O)ccc1C	i
27	COc1ccccc1CN1CC(C(=O)N2CCN(c3ccc(F)cc3)CC2)CC1=O (stereo unspecified)	0.2
28	CC(C)Oc1ccc(CNC(=S)N/N=C/c2cccnc2)cc1	1.8
29	O=C([C@H](Cc1ccccc1)NS(=O)(=O)c1ccc(Cl)cc1)N1CC[C@@]2(O)CCCC[C@H]2C1	3.4
30	CC1CC(C)CN(C(=O)CN2CCN(Cc3ccc(Cl)cc3)C2=O)C1 (stereo unspecified)	i
31	COc1cccc(C(=O)CN2CCC(NC(=O)NC3CCCCC3)CC2)c1	0.2
32	CCn1c(COc2cccc(C)c2)nnc1SCC(=O)N1CCCC1	0.1
33	CC(C)CC(C)NNC(=O)c1cc2ccccc2[nH]1 (stereo unspecified)	2.6
34	Cc1ccc(S(=O)(=O)NC(C)(C)CSc2nncn2C)cc1	0.8
35	CCOc1ccc(NC(=O)c2ccc(CNc3c(NC4CCCCC4)c(=O)c3=O)cc2)cc1	i
36	CCCN1CCN(C(=O)c2cn(CC(C)C)c(=O)c3cc(OC)c(OC)cc23)CC1	0.4
37	CC(=O)c1c(C)nc2ccc(Br)cc2c1C(=O)O	1.3
38	CCN(CC)CCn1c(=S)[nH]c2ncccc2c1=O	2.0
39	O=C(Nc1ncnc2sc3c(c12)CCC3)c1ccco1	5.1
40	CCN(CC)C(=O)c1ccc(COc2ccccc2Br)o1	3.1
41	O=S(=O)(NCC1CCCO1)c1ccc2c(c1)OCCO2 (stereo unspecified)	1.7
42	Cc1ccc(-n2c(Cc3cccs3)nnc2SCC(=O)Nc2ccc(F)c(F)c2)cc1	i
43	COc1ccc(C/C(=N\O)c2ccc(OC)cc2)cc1	0.7
44	COc1cc(C(=O)NCCC(=O)NC2CCCCCCC2)cc(OC)c1OC	i
45	CCCc1nn2c(=O)c(C(c3ccc(C)cc3)c3c(O)nc4sc(CCC)nn4c3=O)c(O)nc2s1	0.3
46	CNC(=O)NC(=O)CSc1nnc(-c2ccco2)n1Cc1ccccc1	0.0
47	Nc1nc(Cl)cc(N2CCC(c3cc(-c4ccc(Cl)cc4Cl)n[nH]3)CC2)n1	i
48	Cc1ccc(CNC(=O)C(NS(=O)(=O)c2ccc3nc(C)sc3c2)C(C)C)cc1 (stereo unspecified)	0.2
49	CCOC(=O)Nc1ccc2c(c1)Nc1ccccc1S2	1.3
50	CC(=O)Nc1cn(C(C)=O)c(C)n1	0.3
51	O=C(NCc1ccccc1)C(c1ccccc1)N(Cc1cccs1)C(=O)c1cnccn1 (stereo unspecified)	i
52	Cc1ccc(/C(O)=C2\C(=O)C(=O)N(CC(C)O)C2c2ccc(N(C)C)cc2)cc1 (stereo unspecified)	1.0
53	CCOc1cccc(CNn2cnnc2)c1OCc1ccccc1	0.2
54	CCOC(=O)c1c(C)[nH]c(C(=O)CSc2nnc(CC(C)c3ccccc3)o2)c1C (stereo unspecified)	i
55	CCCc1nc(N)nc2c1C(=O)CC(C)(C)C2	i
56	Cn1c(CN2CCCC2)nc2cc(NS(=O)(=O)c3ccc(Cl)cc3)ccc21	i
57	COC(=O)c1cc(=O)n(CCc2ccc(OC)c(OC)c2)c(=Nc2ccc(F)c(Cl)c2)s1	i
58	O=C(Nc1ccc2c(c1)OCO2)C1CC(c2ccc(F)cc2)=NO1 (stereo unspecified)	1.1
59	CCC(=O)Nc1ccc(-c2nn3c(C)nnc3s2)cc1C	i
60	CC1CCCCN1S(=O)(=O)c1ccc2c(c1)CCN2C(=O)CCC(=O)O (stereo unspecified)	1.3

Screen by screen, quoted from above:
Compounds 13–16 in H5N1 CPE read 1.9, i, 2.0, i

Next part.
item	canonical_smiles	H5N1 CPE
61	Brc1cccc(-c2nnc3n2CCCCC3)c1	0.7
62	COc1ccc(C2/C(=C(\O)c3cccc(OC)c3)C(=O)C(=O)N2c2ccccn2)cc1 (stereo unspecified)	i
63	CN(C)c1cc(-c2ccccc2)nc(N)n1	i
64	COc1cccc(N2CCN(C(=O)CCn3c(=S)[nH]c4cc5c(cc4c3=O)OCO5)CC2)c1	0.1
65	COc1cnc(SCc2ccc(Cl)cc2)nc1Cl	1.6
66	CCOC(=O)C1=C(C)N=C2c3ccccc3C(=O)C2C1c1ccc(Cl)cc1 (stereo unspecified)	1.0
67	CCOC(CCNC(=O)c1cn(-c2cccc(C)n2)cn1)OCC	i
68	O=C(Cn1nnc(-c2cccc(C(F)(F)F)c2)n1)NC(=O)NCc1ccco1	5.3
69	CCCCCc1nnc(NC(=O)C2CCCO2)s1 (stereo unspecified)	1.2
70	Nc1c(-c2ccccc2)cnn1C1CCS(=O)(=O)C1 (stereo unspecified)	i
71	O=C(Cn1ncc2c(=O)oc3ccccc3c21)NCC1COc2ccccc2O1 (stereo unspecified)	1.5
72	COc1ccc(CSc2nc(C)cc(=O)[nH]2)cc1	3.4
73	COC(=O)c1cc(C(=O)OC)cc(S(=O)(=O)Nc2ccc(Cl)c(N)c2)c1	0.1
74	CN(C(=O)CSc1ncccc1C(=O)O)c1ccccc1	0.5
75	O=C1c2ccccc2C(=O)N1CCc1nc(-c2ccc(Cl)cc2)no1	i
76	COc1ccc(S(=O)(=O)N2CCC(NC(=O)Nc3ccc(C)cc3)CC2)cc1	0.3
77	COc1cc(C)c(Br)cc1S(=O)(=O)N1CCCC1	1.0
78	O=C(c1cccc(F)c1)N1CCN(C(=O)c2cc(-c3ccc(Cl)cc3Cl)on2)CC1	i
79	Cc1nc2ccc3nc(NC(=O)c4ccc(S(=O)(=O)N5CCOCC5)cc4)sc3c2s1	i
80	Cc1cc(Br)c(S(=O)(=O)n2nnc3ccccc32)cc1C	i

Brought forward from above: three entries; new compounds follow.
item	canonical_smiles	H5N1 CPE
78	O=C(c1cccc(F)c1)N1CCN(C(=O)c2cc(-c3ccc(Cl)cc3Cl)on2)CC1	i
79	Cc1nc2ccc3nc(NC(=O)c4ccc(S(=O)(=O)N5CCOCC5)cc4)sc3c2s1	i
80	Cc1cc(Br)c(S(=O)(=O)n2nnc3ccccc32)cc1C	i
81	CCc1nnc(NC(=O)CSc2nnc(C3CCCCC3)n2-c2ccccc2)s1	0.8
82	CC12CC(NC(=O)N1c1cccc(C(=O)NCc3ccccc3)c1)c1ccccc1O2 (stereo unspecified)	i
83	Cc1ccc(-c2cc(C(=O)NCc3ccco3)c3ccccc3n2)s1	0.3
84	Cc1ccc(-n2c(SCC(=O)Nc3ccc4c(c3)OCCO4)nnc2-c2ccco2)cc1	0.5
85	CCOC(=O)C1CCN(C(=O)COc2ccc(S(=O)(=O)NC(C)(C)C)cc2)CC1	i
86	CN(CC(=O)N1CCN(c2cccc(Cl)c2)CC1)S(=O)(=O)c1cccs1	1.3
87	O=C1CCCc2sccc2N1	i
88	O=C(CSc1nnc(Cc2cc(=O)[nH]c(=O)[nH]2)n1-c1ccccc1)N1CCCCC1	0.5
89	O=C(O)CCSc1nc2ccccc2n1CCOc1ccccc1	0.4
90	O=C1CCCC2=C1C1(O)C(=O)c3ccccc3C1(O)O2 (stereo unspecified)	i
91	Cc1ccc2[nH]c(=O)c(C(c3nnnn3C(C)(C)C)N3CCN(C(=O)c4ccco4)CC3)cc2c1 (stereo unspecified)	i
92	Cc1nc(NC(=O)/C=C/c2ccccc2)sc1C(=O)Nc1ccccc1	i
93	Cc1ccc(-c2nnc(SCC(C)C)n2C)cc1	2.6
94	CCOCCCN1C(=O)CN(C2CCCCC2)C(=O)C1c1ccc(OCC)c(OC)c1 (stereo unspecified)	0.8
95	O=C(CC12CC3CC(CC(C3)C1)C2)NCCN1CCOCC1	0.2
96	O=S(=O)(O)c1nc2ccccc2n1Cc1ccc(Cl)cc1	0.1
97	COc1ccccc1N1C(=O)N(C(C)=O)C2C1Nc1ccccc1N2C (stereo unspecified)	i
98	Cc1ccc(CNC(=O)C2CC(c3ccccc3[N+](=O)[O-])=NO2)o1 (stereo unspecified)	i
99	N#CC1=C(SCc2ccccc2)NC(=O)CC1c1ccco1 (stereo unspecified)	i
100	Cc1ccc(OCc2nnc(SCC(=O)Nc3ccc4c(c3)OCO4)n2C)cc1	i
101	CC1(C)CC(=O)c2c(oc3cc(O)c(O)cc23)C1	1.9
102	O=c1c(Sc2ccccc2)c(C(F)(F)F)[nH]n1-c1ccccc1	0.3
103	CC(C)NC(=O)c1cc(-n2cnnc2)ccc1Cl	i
104	CCOC(=O)N1CCN(C(=O)CN(c2ccc(OCc3ccccc3)cc2)S(C)(=O)=O)CC1	i
105	Cc1ccc(-c2cn3cccnc3n2)cc1NC(=O)c1ccc(Br)o1	1.2
106	COc1ccc(C2c3c(n[nH]c3C)CC(C)(O)C2C(C)=O)cc1OC (stereo unspecified)	0.3
107	CCCn1c(N)c(C(=O)CSc2nnc(C3CC3)n2Cc2ccccc2)c(=O)[nH]c1=O	0.6
108	O=C(Nc1nc(-c2ccc(Cl)s2)cs1)c1ccccc1	0.1
109	CC(NC(=O)c1cc2ccccc2o1)C(=O)O (stereo unspecified)	0.1
110	O=c1[nH]c2cc3c(cc2cc1C(c1nnnn1CC1CCCO1)N1CCCCCC1)OCCO3 (stereo unspecified)	i
111	O=C(NCCO)c1cccc(Nc2nc(-c3ccccc3)c3cc(Cl)ccc3n2)c1	1.8
112	Cc1cc(C)n2nc(SCC(=O)c3ccccc3)nc2n1	i
113	CCOC(=O)N1CCC(NC(=O)CN2C(=O)C(CC)Oc3ccc(C)cc32)CC1 (stereo unspecified)	0.6
114	COC(=O)c1ccccc1NC(=O)C1CCCN(S(=O)(=O)c2ccc(OC)cc2)C1 (stereo unspecified)	4.8
115	COc1cc(/C=C2/C(=O)N=C(N)N2C)cc(OC)c1OC	i
116	O=c1ccccn1Cc1c(F)cccc1Cl	0.3
117	CCc1ccccc1NC(=O)N[C@H](C(=O)O)C(C)CC (stereo partly specified)	i
118	CCOC(=O)N1CCC(Nc2c(Nc3ccc(C)c(C)c3)c(=O)c2=O)CC1	1.4
119	C=CCN=C(CC)C1=C(O)CCCC1=O	i
120	COCCn1c(=S)[nH]c2cc(C(=O)NCCCN3CCOCC3)ccc2c1=O	0.6

Fetched by compound from the list above:
item	canonical_smiles	H5N1 CPE
94	CCOCCCN1C(=O)CN(C2CCCCC2)C(=O)C1c1ccc(OCC)c(OC)c1 (stereo unspecified)	0.8
96	O=S(=O)(O)c1nc2ccccc2n1Cc1ccc(Cl)cc1	0.1
73	COC(=O)c1cc(C(=O)OC)cc(S(=O)(=O)Nc2ccc(Cl)c(N)c2)c1	0.1
37	CC(=O)c1c(C)nc2ccc(Br)cc2c1C(=O)O	1.3
20	Cn1c(=O)c2c(nc(N3CCCCCC3)n2CC(=O)c2ccccc2)n(C)c1=O	0.0

(cont.)
item	canonical_smiles	H5N1 CPE
121	O=[N+]([O-])c1ccccc1N/N=C/c1cc2ccccc2nc1Cl	i
122	COc1cccc(N2CCN(Cc3nc4ccccc4c(=O)[nH]3)CC2)c1	i
123	COCCn1cnc2cc(C)c(C)cc21	i
124	COC(=O)c1ccc(NC(=O)Cn2nc(-c3ccncc3)nc2SCC(=O)Nc2nccs2)cc1	4.1
125	Fc1ccc(CNc2nc(-c3ccco3)cc(C(F)(F)F)n2)cc1	0.5
126	COc1cccc(CNS(=O)(=O)c2cccc(S(=O)(=O)N3CCOCC3)c2)c1	1.2
127	O=C(O)c1cccc(CSc2nnc(COc3ccccc3)o2)c1	1.0
128	O=C(OCc1ccc(Cl)cc1)c1ccccc1C(=O)c1ccccc1	i

Compound activity (PubChem)
